# Autofluor counter = compound fluorescence in toxin protease inhibitor counterscreen | compound autofluorescence counterscreen, microsphere flow cytometry; stronger effect = higher value | fluorescence intensity (concentration not given with the values) | 360,000 compounds, 3.1% hits | AID 624483;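 active means at least 3 SD above the mean of all compounds, about 16000 in these data; inconclusive means too few beads counted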;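 further: 100 nL of 1 mM stock went into each well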
# Sa RN4220 lethal = S. aureus RN4220 growth inhibition. OD600, 16 h. inhibition, % (concentration not given with the values). 330,000 compounds, 0.33% hits;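 active means z-score of -3 or lower and OD600 up to 0.18 on both plates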;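 further: plate controls were untreated cells for no effect and reference antibiotic for full effect; stock transfer was 100 nL into about 80 µL; one replicate is shown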
# Sa ugtP lethal = compounds lethal to S. aureus RN4220 ugtP deletion mutant; OD600 growth, 16 h; some inactives read as strong as hits; growth inhibition, % (test concentration not listed); 330,000 compounds, 0.54% hits;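 active means z-score under -3 and OD600 up to 0.15 on both plates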;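 further: plate controls were untreated wells for no effect and antibiotic for full effect; wells of about 80 µL received 100 nL stock; the first replicate is given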
# BJeLR lethal = BJeLR cell viability loss; 300,000 compounds, 0.17% hits; inhibition, % (test concentration not listed); BJeLR (HRASV12) viability, CellTiter-Glo ATP luminescence, 48 h; reference of the scale not given here; AID 1554;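 active means replicate mean above 50%; inconclusive means above 50% but judged a plate artefact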;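 further: 50 nL library stock added to about 25 µL; numbers are from one replicate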
# PrP 5UTR inh = inhibition of PrP 5' UTR reporter expression. 340,000 compounds, 0.35% hits. inhibition, % (concentration not given with the values). AID 488862. cell-based PrP 5' UTR mRNA reporter, plate reader;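 active means every replicate at 50% or more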;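 further: 0 = median of the neutral control wells; tested in H4 reporter cells; numbers are from one replicate; inactives centre near -14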
# Mtb hypoxia rep = inhibitors of hypoxia-regulated fluorescent reporter in Mycobacterium tuberculosis | M. tuberculosis hypoxia-regulated fluorescent reporter, fluorescence | fluorescence inhibition, % (no concentration beside the values) | 300,000 compounds, 0.1% hits;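 active means 35 to 45% if threefold the growth effect, above 45% if 1.5-fold the growth effect; inactive means the rest, general growth blockers included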;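 further: wells of about 50 µL received 100 nL stock; 0% = vehicle wells and 100% = reference inhibitor wells; whole bacteria with a GFP reporter of the hypoxia response; strong numbers were not always called active; many hits fall short of the cut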
# Mtb hypoxia rep growth = second read-out of Mtb hypoxia rep, no call of its own (marks repeat the call); growth inhibition, %; measured here: M. tuberculosis growth (absorbance);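 0% = vehicle and 100% = reference antibiotic; read after six days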
# * marks the source's active call; other numbers are inactive results; ? = inconclusive; . = no result given.
no.	canonical_smiles	Autofluor counter	Sa RN4220 lethal	Sa ugtP lethal	BJeLR lethal	PrP 5UTR inh	Mtb hypoxia rep	Mtb hypoxia rep growth
1	Fc1ccc(OCc2nc3ccccc3s2)cc1	4992	4.0	1.5	2.6	-66.0	2.8	14.3
2	CCN(CC)CC(=O)Nc1ccc(C(C)=NNC2=NCCN2)cc1	.	4.0	11.2	.	.	10.1	4.6
3	CCOC(=O)C1=C(N)n2c(sc(=Cc3cccnc3)c2=O)=C(C(=O)OC)C1c1cccnc1 (stereo not drawn)	.	3.5	1.4	.	.	1.7	2.1
4	Cc1ccc(S(=O)(=O)NCCNC(=O)c2nonc2N)cc1	3289	0.7	2.2	6.7	-15.2	-5.9	2.6
5	CC(=O)Oc1ccc(-c2cccc(C(=O)Oc3ccccc3)c2)cc1	2165	15.4	-1.6	-3.1	-11.2	.	.
6	O=S(=O)(c1ccccc1)c1nc(-c2ccc(Cl)cc2)oc1NCCCN1CCOCC1	6531	1.3	5.0	.	-1.1	2.7	-1.0
7	O=C1N=C(N2CCOCC2)S/C1=C\c1ccc(OS(=O)(=O)c2ccccc2)cc1	2630	7.4	-1.7	4.9	-7.5	8.4	6.9
8	CCn1nc(-c2ccccc2)nc2c(=O)n(C)c(=O)nc1-2	2510	94.9*	99.9*	0.5	-48.2	-5.0	1.4
9	COC(=O)/C(=N/Nc1ccc(C)cc1)N1CCCc2ccccc21	2706	.	.	-1.6	-15.5	.	.
10	COc1cccc(CNS(=O)(=O)c2cc3c4c(c2)CCC(=O)N4CCC3)c1	4398	9.2	11.2	-2.8	-33.2	4.3	3.4
11	O=C(CNS(=O)(=O)c1ccc(Cl)cc1)NC1CCCCC1	.	-1.8	-2.6	.	.	6.8	7.6
12	O=C(COC(=O)C1CC2C=CC1C2)Nc1ccc([N+](=O)[O-])cc1 (stereo not drawn)	3645	2.6	1.1	.	-8.8	10.8	12.6
13	CSc1ccc(C(=O)C2CCCN(Cc3cnc(SC)nc3)C2)cc1 (stereo not drawn)	2161	0.9	8.6	1.8	-12.4	2.2	10.9
14	O=C(O)c1ccc(CN2C(=O)c3cccc4c([N+](=O)[O-])ccc(c34)C2=O)cc1	3270	45.9	97.1*	72.9*	-8.4	-1.0	6.6
15	Cc1ccc(-n2nc3c(=O)n(CCCC(=O)NCCN4CCN(C)CC4)nc(C)c3c2C)cc1	4471	1.2	5.3	1.1	10.9	8.4	1.0
16	CC(C)(C)c1ccc(C(=O)N2CCC(C(=O)NCc3ccco3)CC2)cc1	3070	2.8	-0.9	-3.4	-6.9	5.9	13.9
17	Cc1ccc(C)c(OCC(=O)NNC(=O)c2ccc(=O)[nH]c2)c1	4162	3.8	3.8	.	-22.5	5.4	-1.3
18	O=C(CN1CCCCCC1=O)OCc1ncc(-c2ccccc2)o1	4033	2.6	5.1	-0.4	-11.5	9.2	-0.8
19	N#C/C(=C(/O)COC(=O)c1ccc(O)cc1)c1nc2ccccc2[nH]1	4317	-0.1	6.8	-6.0	.	-6.4	10.3
20	CN(CC1CCCO1)S(=O)(=O)c1ccc(C(=O)Nc2nnc(-c3ccccc3)o2)cc1 (stereo not drawn)	?	28.4	8.0	5.5	-32.9	-4.1	-1.6

# In the list so far, 3 have a halogen.
no.	canonical_smiles	Autofluor counter	Sa RN4220 lethal	Sa ugtP lethal	BJeLR lethal	PrP 5UTR inh	Mtb hypoxia rep	Mtb hypoxia rep growth
1	Fc1ccc(OCc2nc3ccccc3s2)cc1	4992	4.0	1.5	2.6	-66.0	2.8	14.3
6	O=S(=O)(c1ccccc1)c1nc(-c2ccc(Cl)cc2)oc1NCCCN1CCOCC1	6531	1.3	5.0	.	-1.1	2.7	-1.0
11	O=C(CNS(=O)(=O)c1ccc(Cl)cc1)NC1CCCCC1	.	-1.8	-2.6	.	.	6.8	7.6

# Next compounds
no.	canonical_smiles	Autofluor counter	Sa RN4220 lethal	Sa ugtP lethal	BJeLR lethal	PrP 5UTR inh	Mtb hypoxia rep	Mtb hypoxia rep growth
21	CN(C)S(=O)(=O)c1ccc(C(=O)Nc2ccn(C)n2)cc1	3664	1.9	0.9	-1.4	-28.7	10.6	-2.8
22	Cc1cc(C)nc(NS(=O)(=O)c2ccc(NC(=S)NC(=O)C3CCCC3)cc2)n1	10705	-1.1	86.0*	13.6	-12.2	1.4	6.8
23	Cc1ccccc1NC(=O)NC1CCCCC1C (stereo not drawn)	1962	7.5	-3.8	-1.5	-0.3	0.0	9.6
24	CC(Oc1ccc(-c2ccccc2)cc1)C(=O)O (stereo not drawn)	3669	4.7	-4.5	-2.7	-18.8	15.7	6.9
25	Cc1ccc(Nc2nc(N)c([N+](=O)[O-])c(NCCO)n2)cc1	5947	5.4	-7.2	-6.3	.	0.1	-2.6
26	Cc1ccc(S(=O)(=O)CC(=O)Nc2nc3ccccc3s2)cc1	3038	2.2	-5.7	-2.5	13.8	-5.1	-2.8
27	NNC(=O)c1cc2cc(OC(F)(F)F)ccc2[nH]1	3878	-1.1	-9.6	-3.7	-0.3	-9.9	8.8
28	O=C(COc1ccc(Br)cc1)Nc1nnc(-c2cccnc2)s1	.	-1.4	0.7	-8.4	.	7.0	13.1
29	CCOC(=O)CNC(=O)CSc1nnc(C)c(=O)[nH]1	2500	1.2	0.7	1.9	-6.2	-2.6	4.9
30	CSc1cccc(CN(C)C(=O)C2CCC(=O)N(CCCN3CCCC3=O)C2)c1 (stereo not drawn)	6049	0.2	2.5	1.7	-5.7	7.8	-6.9
31	C=CCn1c(CSc2nc3ccccc3s2)nnc1SCC(=O)OCC	9365	6.5	-5.1	0.7	12.5	10.5	12.9
32	Cc1ccc(CC(=O)Nc2ccc(F)c([N+](=O)[O-])c2)cc1	2371	2.6	-4.9	2.7	-18.3	5.4	12.2
33	COc1ccc(/C=C(/NC(=O)c2ccc(Br)cc2)C(=O)N2CCOCC2)cc1	5752	1.0	0.6	-0.2	-4.1	-2.3	-5.3
34	Cc1cc(C)n2nc(CC(=O)NNC(=O)c3ccccc3Cl)nc2n1	5458	1.0	0.0	-4.7	-11.8	-7.1	10.4
35	CCC(C)(C)n1nnnc1C(c1ccccc1)N1CCc2ccccc2C1 (stereo not drawn)	3432	-15.3	-7.0	-7.3	-27.6	4.0	8.9
36	CCCn1nc(C(=O)NCC2COc3ccccc3O2)c2ccccc2c1=O (stereo not drawn)	3681	11.3	2.4	.	-6.4	7.9	3.9
37	C=C1CCN([C@@H](CC(C)C)C(=O)NCCC(C)C)S(=O)(=O)c2ccccc21	3925	.	.	7.5	-11.9	.	.
38	CCCOc1ccc(CSc2nnc(CCC)n2N)cc1	3575	1.8	3.5	4.7	-3.3	.	.
39	Cc1ccc(Nc2nc(Oc3ccc(OCc4ccccc4)nn3)nc(N3CCOCC3)n2)cc1	2812	2.0	-8.1	-5.9	-15.2	.	.
40	CC1=[N+](C)c2c(ccc3cccnc23)C1(C)C	3024	-3.2	10.5	.	-22.4	-4.2	3.3

# Structural class: the compounds so far with bromine (two)
no.	canonical_smiles	Autofluor counter	Sa RN4220 lethal	Sa ugtP lethal	BJeLR lethal	PrP 5UTR inh	Mtb hypoxia rep	Mtb hypoxia rep growth
28	O=C(COc1ccc(Br)cc1)Nc1nnc(-c2cccnc2)s1	.	-1.4	0.7	-8.4	.	7.0	13.1
33	COc1ccc(/C=C(/NC(=O)c2ccc(Br)cc2)C(=O)N2CCOCC2)cc1	5752	1.0	0.6	-0.2	-4.1	-2.3	-5.3

# The results go on:
no.	canonical_smiles	Autofluor counter	Sa RN4220 lethal	Sa ugtP lethal	BJeLR lethal	PrP 5UTR inh	Mtb hypoxia rep	Mtb hypoxia rep growth
41	Fc1cccc(CCNCc2ccccn2)c1	4930	1.2	6.5	-12.5	-20.7	.	.
42	COC(=O)c1ccc(-c2noc(CN(Cc3nccn3C)C(C)C)n2)cc1	4190	4.3	2.8	2.1	-24.7	8.4	1.6
43	CCOC(=O)C(=N/O)/C(C)=N/NC(=O)C(=O)Nc1cc(Cl)ccc1Cl	5280	.	.	-3.0	-16.1	.	.
44	COC(=O)c1ccccc1N(C)C(=O)C12CCC(C)(C(=O)O1)C2(C)C (stereo not drawn)	3650	3.2	1.0	-5.6	2.6	.	.
45	COc1cccc2cc(C(=O)N3CCC(C)CC3)c(=O)oc12	5875	1.6	0.6	-1.5	-26.5	.	.
46	CCN1CCN(CC(=O)c2ccc(C)cc2)CC1	3834	4.9	6.5	-0.4	-6.0	2.1	-3.5
47	C=C(C)Cn1c(SCC(=O)NN=Cc2ccccc2OCC(=O)O)nnc1-c1ccc(Br)cc1	.	1.1	9.0	.	.	0.8	-9.3
48	O=C(Nc1c(C(=O)N2CCOCC2)cnn1-c1ccccc1Cl)c1ccco1	7998	2.9	1.5	0.3	-26.1	-0.7	5.1
49	CC(C)CC1CN=C(Nc2ccccc2)N1CCCC1CCCC1 (stereo not drawn)	.	1.2	5.0	.	.	18.8	6.8
50	CCCc1cc(=O)oc2cc(OCC(=O)NCc3cccs3)ccc12	2567	-1.6	5.0	10.9	-17.4	0.1	-16.7
51	CC1(c2ccc(Cl)cc2)NC(=O)N(CC(=O)Nc2ccc(F)cc2)C1=O (stereo not drawn)	3088	-2.0	15.0	-0.3	-24.6	16.1	2.1
52	COc1ccc(Br)cc1C(=O)N/N=C/c1cccnc1	3869	.	.	-18.1	2.9	.	.
53	COC(=O)c1ccsc1NC(=O)CN1CCN(c2ccc(F)cc2)CC1	4760	0.8	-0.9	-0.8	-4.2	.	.
54	COc1ccc(CC(=O)OCC(=O)NCc2ccc(C)cc2)cc1OC	4478	4.3	4.2	.	-2.3	2.4	12.1
55	Cc1ccc2c(c1)c1c3n2CCN(CC(O)CNC(C)C)C3CCC1 (stereo not drawn)	3504	-0.4	4.0	1.9	-5.1	2.2	-2.0
56	CC1CCN(C(=S)NC2CCCCC2)CC1	3662	1.5	-0.2	2.2	-15.8	.	.
57	C/C(=N\NC(=O)c1ccco1)c1cc2ccccc2o1	7502	.	.	-3.6	-34.6	.	.
58	c1ccc2cc(CNCc3cccc4ccccc34)ccc2c1	5697	-1.1	-21.1	-0.8	-37.1	2.7	15.4
59	COC(=O)c1ccc(CNC(=O)c2ccc(S(=O)(=O)N(C)c3ccccc3OC)cc2)cc1	2935	3.9	0.4	.	4.9	-1.9	-2.7
60	CC1CC(C)CN(CCCNS(=O)(=O)c2ccc3c(c2)CCN3C(=O)C2CC2)C1 (stereo not drawn)	3636	2.5	3.1	-5.2	0.1	12.1	-2.7
61	O=[N+]([O-])c1ccc(C=NNc2ccccc2)cc1	3590	1.4	-17.7	.	-12.2	9.2	1.1
62	COc1ccc(S(=O)(=O)N2CCOCC2)cc1NC(=O)c1ccc(S(=O)(=O)N(C)c2ccccc2OC)cc1	3910	1.6	6.6	.	-4.9	10.6	7.2
63	N#C/C(=C\c1cccnc1)C(=O)Nc1cccc(Cl)c1	4521	-9.6	-2.8	-2.1	-22.7	-2.6	8.9
64	CCn1c(CNc2ccc(Cl)cc2)nnc1SCc1ccc(Cl)cc1	5524	-3.7	-22.4	4.3	-19.8	11.8	3.2
65	S=c1[nH]c(-c2ccccc2)cn1/N=C/c1cccs1	6495	.	.	-4.0	-14.6	.	.
66	Clc1ccc(CSc2nnc([C@@H]3CCCN3)o2)cc1Cl	4712	3.4	-2.9	2.6	-14.9	.	.
67	COC(C[C@H]1O[C@@H]1[C@@H](O)COCc1ccccc1)OC	4107	.	.	-12.9	-23.1	.	.
68	CCCn1c(SCc2nc3ccccc3s2)n[nH]c1=O	3308	6.6	9.1	6.1	-41.9	-3.9	5.5
69	Cn1ccc2c([N+](=O)[O-])cccc2c1=O	2580	0.1	9.8	-6.2	-20.6	1.8	9.2
70	C=CCN(CC=C)c1nc2ccccc2nc1C(C#N)C(=O)OCCOC (stereo not drawn)	4314	1.7	-4.2	-10.9	-21.6	.	.

# Assay outcomes as filed in PubChem BioAssay.
